# Menin MLL FP FL: displaces fluorescein MLL peptide from human menin; Fluorescence polarization, fluorescein-MLL peptide displacement from menin; FP activity change, % at 61.4 µM; 290,000 tested, under 10 active; inconclusive = falling polarisation curve, or a change in total fluorescence; inactive = total fluorescence flat and polarisation flat or rising; no compound was filed as active; the % refers to the polarisation; negative = inhibition;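 also: % of control where 0% means no effect; inhibitors lower the polarisation; unlabelled MLL peptide was the positive control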
# gsp antag: gsp mutant antagonism; gsp-mutant cells, cAMP HTRF, 30 min; control for the full effect not named in the record; Potency, µM (highest dose often 76.9 µM), for the others: at the top dose activity change, negative = inhibition, actives largely listed as inhibitors; 340,000 tested, 0.4% active; AID 624288; active = falling curve of any shape with a large fitted effect; inconclusive = falling curve, mostly with a smaller effect; inactive = flat or rising curve; cell line not stated here;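 also: intracellular cAMP measured with PDE inhibitor Ro 20-1724 present during compound exposure; potency is read from the fitted curve at half-maximal effect; % is scaled to controls: 0 for no effect and ±100 for the full control effect; nearly all actives have a fitted effect of over 65% in size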
#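 G418-selected cells were plated in DMEM/10% FBS for 16-24 h at 37C, then treated with compounds plus the PDE inhibitor […] (300 uM solution added) for 30 min at 37C. Intracellular cAMP was measured by HTRF after 30 min lysis at room temperature.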
# TRPML1 agonist: human mucolipin-1 channel agonism; Q9GZU1; TRPML1-expressing cells, Ca2+ dye fluorescence, FDSS; host cell line not named in the record; reference of the full effect not given here; activation, % (test concentration not listed); 410,000 tested, 0.12% active; AID 624414; in the data active = activation above about 50%; inconclusive = about 30% to 50%; inactive = below about 30%; also: 0% is about no effect; the text of the record puts the active cut at 80%
# Target sequence (Q9GZU1 whole entry, looked up): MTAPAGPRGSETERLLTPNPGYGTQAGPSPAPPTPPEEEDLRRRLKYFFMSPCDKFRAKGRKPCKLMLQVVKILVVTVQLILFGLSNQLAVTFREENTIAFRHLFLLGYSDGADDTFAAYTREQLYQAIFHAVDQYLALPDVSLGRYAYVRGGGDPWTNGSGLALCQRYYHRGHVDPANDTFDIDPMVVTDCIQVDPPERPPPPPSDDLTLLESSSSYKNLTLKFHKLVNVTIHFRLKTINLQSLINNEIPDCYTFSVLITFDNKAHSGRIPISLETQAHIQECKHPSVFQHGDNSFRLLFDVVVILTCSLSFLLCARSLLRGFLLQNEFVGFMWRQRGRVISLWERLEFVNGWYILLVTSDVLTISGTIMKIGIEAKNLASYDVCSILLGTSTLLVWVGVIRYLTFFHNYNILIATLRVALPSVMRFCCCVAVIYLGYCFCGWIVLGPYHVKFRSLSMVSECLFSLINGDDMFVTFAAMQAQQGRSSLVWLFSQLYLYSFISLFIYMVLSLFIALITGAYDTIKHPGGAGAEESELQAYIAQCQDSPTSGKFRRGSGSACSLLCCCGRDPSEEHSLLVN
#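 Tet-induced TRPML1-DL cells, 1,500 per well, cultured overnight, were loaded with a no-wash Ca2+ dye for 45–90 min. Calcium fluorescence was recorded on the FDSS for 110 s after compound addition, before the EC80 agonist (4 uM 54-4) was added.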
# ClpP mod: qHTS Assay for Activators of ClpP; purified B. subtilis ClpP, FRET peptide cleavage, 20 min; 340,000 tested, 1.9% active; Potency, µM (top dose mostly 57.5 µM), for inactives: top-dose activity change, negative = active; active = well fitted falling curve with a large enough effect; inconclusive = small, poorly fitted or top-dose-only effect; inactive = no such curve, though single readings can be large or run the other way; also: potency is read from the fitted curve at half-maximal effect; the source files actives as falling curves though it sought activators and does not explain the sign; nearly all actives have a fitted effect of over 65% in size; many hits overshoot -100%
# Target sequence (P80244 whole entry, looked up): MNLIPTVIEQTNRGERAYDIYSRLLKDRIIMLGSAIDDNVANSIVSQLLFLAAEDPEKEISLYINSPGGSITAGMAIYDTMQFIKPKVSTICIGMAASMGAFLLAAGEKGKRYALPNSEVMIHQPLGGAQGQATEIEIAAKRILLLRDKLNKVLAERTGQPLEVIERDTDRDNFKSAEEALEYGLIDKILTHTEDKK
#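 Buffer: 100 mM Tris/HCl pH8, 100 mM KCl, 0.05% low protease BSA, 2.5% glycerol, 0.01% Tween-20. ClpP 10 microg/mL final; 20 min RT; delta FRET normalized to ADEP and DMSO controls.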
# TRPML1 blocker: inhibitors of human TRPML1 channel. activity change, negative = inhibition, % (no concentration beside the values). AID 624415. TRPML1-inducible cells, Ca2+ dye fluorescence, FDSS; active compounds read low; inhibition of EC80 agonist-evoked calcium signal. 390,000 tested, 0.02% active; in the data active means activity change below about -50%; inconclusive means about -30% to -50%; inactive means above about -30%;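 also: stimulus is agonist 54-4 at its EC80 concentration; % is scaled to controls: 0 for no effect and ±100 for the full control effect; compound concentration not given in the record; the text of the record puts the active cut at -80%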
#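 TRPML1-DL cells, Tet-induced overnight (~16 h, 37 °C) at 1,500 cells/well, were loaded with Ca8 no-wash dye plus quencher for 45-90 min at room temperature. Compounds were pinned during FDSS kinetic reading; agonist 54-4 at EC80 (4 uM final) then added.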
# gsp agonist: agonists of gsp mutant (McCune-Albright syndrome). Potency, µM (titrated, usually from 76.9 µM), for the others: top-dose activation (cAMP increase), most hits filed as activators. gsp mutant cells, cAMP HTRF, 30 min; control for the full effect not named in the record. 340,000 tested, 0.13% active; active = well fitted activation curve with a large enough effect; inconclusive = small, poorly fitted or top-dose-only effect, or another doubt; inactive = no such curve, though single readings can be large or run the other way; cell line not stated here;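 also: phosphodiesterase inhibitor Ro 20-1724 added with compounds to block cAMP breakdown; potency is read from the fitted curve at half-maximal effect; nearly all actives have a fitted effect of over 60% in size; about a fifth of the inactives were tested at one dose only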
#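 Cells stably selected in G418 were plated at 2000/well, grown 16-24 hr, then given compounds in DMSO with the PDE inhibitor […] (300 uM solution added) for 30 min at 37C; cAMP was read by HTRF.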
# Numbers without * were called inactive; ? = inconclusive; / = no result given; [ ] = remark or other dose. This is a random part of the collection. Share with any hit: about 2.1%.
SMILES,Menin MLL FP FL,gsp antag,TRPML1 agonist,ClpP mod,TRPML1 blocker,gsp agonist
O=C(NC(=S)Nc1ccc(Br)cn1)c1cccs1,1.9,-14.2%,0.4,1.7%,-1.3,4.9%
CCOc1ccc(N(C)S(=O)(=O)c2ccc3c(c2)C(C)(C)C(=O)N3C)cc1,/,/,0.3,-1.0%,3.6,/
O=C(COC(=O)CNS(=O)(=O)c1ccc(F)c(F)c1F)NC1CCCC1,/,-2.1%,0.1,1.5%,-7.5,-0.1%
CCOc1ccc(C2=Nn3c(nnc3-c3ccccn3)SC2)cc1,-0.2,-12.7%,2.9,-0.1%,-4.5,-0.5%
Cc1nc2ccc(NC(=S)N3CCC(C)CC3)cc2nc1C,0.4,18.7%,0.2,/,6.5,16.8%
O=C1CC(N(C(=O)c2ccco2)c2cccc(Cl)c2)C(=O)N1c1cccc(Cl)c1 (stereo not drawn),-0.1,-9.2%,-0.2,1.0%,2.1,-14.2%
O=C1CCCc2c1[nH]c1ccccc21,4.2,9.9%,1.0,-1.2%,22.5,-0.5%
COc1ccc(N=Nc2cc(C)ccc2O)cc1,0.1,7.5%,0.9,-3.4%,6.7,20.1%
COC(=O)C1=C(N)Oc2cc(C)[nH]c(=O)c2C1c1cc(OC)c(OC)c(OC)c1 (stereo not drawn),1.3,3.6%,-0.9,-6.2%,0.0,-12.2%
Cc1ccc(C)c(OCCSc2nc3ccccc3n2CC(=O)N2CCOCC2)c1,/,/,-0.3,0.6%,-14.2,/
O=S(c1cc(Cl)cc(Cl)c1O)c1cc(Cl)cc(Cl)c1O,-1.3,/,-0.6,-1.5%,/,/
Cc1cc(C)c(OCC(=O)N(Cc2ccc(N(C)C)cc2)Cc2ccco2)c(C)c1,/,/,0.4,-3.7%,-7.9,/
Cc1nn(C)c(C)c1S(=O)(=O)N(CC(=O)Nc1ccc2c(c1)OCO2)c1ccc(C(C)C)cc1,2.7,-9.1%,-0.9,1.9%,2.2,?
CCCCSc1cc(=O)[nH]c(N)n1,2.8,-6.0%,2.4,/,15.2,15.9%[15.4 µM]
Cc1ccc(-n2c(=O)c3c4c(sc3n(CC(=O)Nc3ccccc3C)c2=O)CCCCC4)cc1C,/,/,0.3,-3.7%,9.4,/
O=C(CCCOc1ccc(Cl)cc1)NCC1CCCO1 (stereo not drawn),-1.2,-21.0%,3.1,-19.7%,-1.1,19.9%
CCc1ccc(N(C(=O)c2csnn2)C(C(=O)NC2CCCCC2)c2cccnc2)cc1 (stereo not drawn),-3.8,-43.1%,0.3,/,-12.7,10.1%[15.4 µM]
Cc1cccc(N(Cc2cc3ccccc3[nH]c2=O)C(=O)c2cccc(Cl)c2)c1,/,/,0.7,-18.3%,13.5,/
C[C@H]1CN([C@@H](C)CO)C(=O)CCCn2nncc2CO[C@@H]1CN(C)C(=O)c1ccc2ccn(C)c2c1,/,/,0.5,3.8%,-1.4,4.3%
CC(C)c1ccc(NC(=O)C2CCCN(S(=O)(=O)c3ccc4c(c3)C(C)(C)C(=O)N4C)C2)cc1 (stereo not drawn),-7.2,-11.9%,1.2,-0.1%,6.5,-8.0%
COc1cccc(-c2noc(CCC(=O)NC3CCCC3)n2)c1,/,6.7%,-0.1,-0.4%,6.8,-22.7%
COc1ccc(OC)c(-n2cnnn2)c1,0.9,4.9%,0.0,-3.5%,17.9,-10.8%
COc1ccc(NC(=O)C2(C)Cc3c(-c4ccc(N(C)C)cc4)ccnc3O2)cc1OC (stereo not drawn),/,/,-0.3,5.1%,17.3,/
Cc1ccc(N2CC(NC(=O)c3ccc(S(=O)(=O)N4CCCC4)cc3)CC2=O)cc1C (stereo not drawn),/,/,-0.7,0.6%,-13.7,/
CN(C(=O)c1ccc(-c2nn(C)c(=O)c3ccccc23)cc1)c1ccccc1,-1.2,?,1.6,4.1%,-18.3,5.0%
SMILES,Menin MLL FP FL,gsp antag,TRPML1 agonist,ClpP mod,TRPML1 blocker,gsp agonist
COc1ccc(C(=O)N/N=C(\CCC(=O)O)c2ccc(C(C)(C)C)cc2)cc1OC,0.8,/,-0.7,/,-1.3,-2.8%[15.4 µM]
O=C(Nc1ccccc1N1CCCCC1)C1=COCCO1,/,4.9%,0.5,-2.5%,-2.1,-28.6%
Cc1cc(NC(=O)CCC(=O)N(c2cccc(F)c2)C(C(=O)NC2CCCC2)c2ccccc2)no1 (stereo not drawn),0.4,-4.9%,-0.1,/,-2.0,12.2%[15.4 µM]
Cc1ccc(NCC(=O)N/N=C/c2ccc(C(=O)O)cc2)cc1,0.8,-0.1%,/,-0.7%,/,-2.4%
O=C(NCc1ccccc1)C1CCCN(S(=O)(=O)c2ccc(-n3cnnn3)cc2)C1 (stereo not drawn),-21.4,-2.2%,-1.0,/,-9.7,-7.9%[15.4 µM]
C#CCOCCOCCOCCNc1nc(N2CCN(C(=O)[C@H]([C@@H](C)CC)n3cc([C@@H](N)CO)nn3)CC2)nc(N2CCN(C(=O)[C@H](CCCCN)n3cc([C@@H](N)CC(C)C)nn3)CC2)n1,0.6,?,-0.1,-0.5%,16.5,-39.6%[inhibitor]
CCOC(=O)C1C(=O)CC(=O)CC1CC(C)SCC (stereo not drawn),1.1,-2.0%,-1.0,2.1%,3.2,-8.9%
CCCCN(CCCC)CCCN1CC(=O)N2[C@@H](Cc3c([nH]c4ccccc34)C2(C)C)C1=O,0.7,2.2%,-0.3,-1.2%,-8.9,?
c1coc(CNCCCN2CCOCC2)c1,3.7,8.6%,0.5,0.9%,0.8,2.7%
CCOc1ccc(NC(=O)Nc2ccc3c(c2)nnn3C)cc1,-0.1,2.5%,0.0,-10.0%,19.4,-17.6%
COCCn1nnnc1C(c1ccccc1)N1CCN(Cc2ccc3c(c2)OCO3)CC1 (stereo not drawn),-0.2,-0.7%,-0.3,-1.8%,0.5,6.9%
CCOc1cc(C)c(S(=O)(=O)NCc2ccccn2)cc1C,-0.5,0.5%,0.1,0.1%,8.3,6.3%[15.4 µM]
O=c1cc(CNc2cc(C(F)(F)F)cc(C(F)(F)F)c2)nc2sccn12,4.4,-12.6%,1.4,-1.1%,32.8,-26.8%
COCCn1c(C)cc(O)c(C(c2ccccc2)N2CCC(C)CC2)c1=O (stereo not drawn),/,/,-0.4,-1.9%,-5.5,/
COC(=O)c1sccc1S(=O)(=O)N(CC(=O)NCc1ccc(F)cc1)c1ccccc1,/,/,0.4,1.2%,8.2,/
COc1cc(S(=O)(=O)N2CCN(c3ccccc3F)CC2)c(OC)cc1Cl,0.8,3.0%,0.4,-1.8%,-2.4,17.2%
O=C(Nn1c(COc2ccccc2)nc2ccccc2c1=O)C(Cl)(Cl)Cl,-2.8,-9.9%,1.2,-3.1%,-4.7,-15.8%
CCN1CCN(C(=O)COCc2cc(-c3ccc4c(c3)OCO4)on2)CC1,/,3.9%,0.0,-13.3%,-12.1,?
CCOc1ccc(N2CC(C(=O)Nc3nnc(Cc4ccc(OC)cc4)s3)CC2=O)cc1 (stereo not drawn),-2.1,-5.4%,-0.2,/,2.3,10.3%[15.4 µM]
c1ccc2c(c1)nnn2-c1ncnc2sccc12,1.4,-6.3%,-0.6,-25.1%,-7.6,-4.1%[15.4 µM]
CCSc1nnc(-c2cc(Br)ccc2N=Cc2c(C)[nH]n(-c3ccccc3)c2=O)c(=O)[nH]1,3.6,?,0.3,/,11.4,-12.5%[15.4 µM]
Cc1ccc(-c2noc(CCC(=O)NC3CC3)n2)cc1,-0.5,-2.3%,0.3,/,-5.0,-6.7%[15.4 µM]
O=C(Cn1ncc2c(=O)oc3ccccc3c21)NCCN1CCN(c2ccccc2F)CC1,0.7,8.8%,-0.2,-1.0%,-2.7,-28.1%
CCC(Cc1ccccc1)NC(=O)C1CCN(S(=O)(=O)c2ccc3c(c2)CC(C)N3C(C)=O)CC1 (stereo not drawn),-1.1,?,-0.3,0.9%,-2.5,-0.8%
CCCc1cc(=O)n2[nH]c(-c3ccc(C)cc3)nc2n1,/,/,-0.8,-24.5%,-0.1,/
SMILES,Menin MLL FP FL,gsp antag,TRPML1 agonist,ClpP mod,TRPML1 blocker,gsp agonist
O=c1cc(Nc2ccc3c(c2)OCCO3)[nH]c(=O)n1-c1ccc(Br)cc1,1.8,-9.6%,0.3,1.2%,-2.4,13.5%
Cc1nn(C)c(C)c1S(=O)(=O)N1CCC(C(=O)NC(C)c2ccccc2)CC1 (stereo not drawn),-3.0,-2.5%,-0.4,0.5%,-9.4,-38.5%[inhibitor]
Cc1ccnc(NC(=S)NC(=O)/C=C/c2ccccc2)c1,-3.7,0.0%,-0.4,2.1%,6.9,26.6%
CCCc1c(C(=O)Nc2cc(C(C)(C)C)on2)cnn1-c1ccccc1,5.0,-9.1%,0.1,3.1%,-10.0,-40.1%[inhibitor]
CCOc1ccccc1NC(=O)CC1Nc2cc(C)c(C)cc2NC1=O (stereo not drawn),12.3,-4.7%,-1.4,-21.0%,-6.5,?
COc1cccc(Nc2sc(C(=O)c3ccc(Cl)cc3)c(N)c2C(=O)NCc2ccc(C)cc2)c1,/,/,0.2,-0.2%,-4.5,/
Cc1n[nH]c(=O)c2c(NC(=O)CSc3nncs3)oc(C)c12,/,9.4%,-0.8,-5.9%,3.5,?
Clc1cc(Br)ccc1OCCOCCN1CCOCC1,2.5,11.8%,0.5,0.3%,5.5,2.5%
CCOCCCNC(=O)C1CCC(CNS(=O)(=O)c2ccc(Cl)cc2)CC1 (stereo not drawn),2.6,3.9%,-0.1,0.2%,-17.8,15.0%
CC(=O)NNc1ncnc2c1cnn2-c1ccc(C)cc1,1.5,6.7%,-0.7,/,-7.9,19.6%[15.4 µM]
CCOC(=O)Nc1nnc(-c2ccc(OC)c(OC)c2)s1,-0.8,1.8%[15.4 µM],0.8,0.0%,-16.7,?
O=C(CCN1CCOCC1)NNC(=O)c1ccc(Cl)c([N+](=O)[O-])c1,/,-4.8%,0.6,-0.6%,11.9,6.0%[15.4 µM]
Cc1ccc(Cc2nnc(SCC(=O)Nc3ccccc3)n(N)c2=O)cc1,/,4.8%,2.9,-1.3%,3.9,3.4%
Cc1ccc(NC(=O)CSc2nnc(CNC(=O)C34CC5CC(CC(C5)C3)C4)n2-c2ccc(F)cc2)cc1,-2.0,-16.4%,3.1,1.1%,-3.3,-16.9%
COc1ccc2ccccc2c1/C=N/NC(=O)c1cccc([N+](=O)[O-])c1,-0.3,8.0%,0.4,2.9%,4.0,?
C#CCN1C(=O)C2C(C(=O)NC)C3C=CC2(O3)C1C(=O)NCc1ccc(OC)cc1 (stereo not drawn),-2.9,17.9%,0.1,0.2%,2.6,-0.3%
C=CC[C@H](CC(=O)N[C@H](CO)Cc1ccccc1)C(=O)N[C@@H](COC(=O)[C@@H](CC=C)CC(=O)OC(C)(C)C)Cc1c[nH]c2ccccc12,/,?,-0.8,3.4%,-9.7,-38.1%[inhibitor]
